Assay outcomes: PubChem, Center for Chemical Genomics, University of Michigan
HIV TAR-Tat: HIV-1 TAR-Tat binding disruption; HIV-1 TAR RNA, Tat peptide displacement FRET; stronger effect = higher value; z-score (concentration not given with the values); hit rate 0.6% among 100,000;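 further: score is relative to mean and SD of negative controls; some compounds called inactive have numbers as strong as hits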
CDC25B CDK2 inh: human CDC25B-CDK2/CyclinA binding inhibition. HTRF CDC25B-CDK2/CyclinA binding, anti-His/anti-Flag; stronger effect = higher value. z-score (no concentration beside the values). hit rate 0.72% among 94,000. AID 1259370;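 further: score is relative to mean and SD of negative controls; strong numbers were not always called active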
* marks the source's active call; other numbers are inactive results; x = not tested or not shown.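 How the source made its calls: active means z-score from 3 up in half or more of its runs; inactive means the rest.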

Values run as follows: HIV TAR-Tat, CDC25B CDK2 inh
- OCc1nc2ccccc2n1C/C=C/c1ccccc1
  0.97, -0.98
- C[N+](C)(C)CCCCCCCCCC[N+](C)(C)C
  x, -0.42
- CC1CCC2C(=O)N(c3ccccc3O)C(=O)C2C1 (stereo unspecified)
  -0.92, -0.68
- Cc1cccc(C(=O)O)c1O
  0.87, x
- Cc1ccc(C2Nn3c(C)nnc3SC2C(=O)Nc2ccc(C)cc2C)cc1 (stereo unspecified)
  -0.33, -1.35
- CC1CCCCN1Cc1csc2c1CCCC2 (stereo unspecified)
  -0.45, x
- CC(C)Cc1nc2sc3c(NCCO)ncnc3c2c2c1COC(C)(C)C2
  x, -1.93
- CN(C)CCN(Cc1ccco1)S(=O)(=O)c1ccc2c(c1)C(C)(C)C(=O)N2C
  -0.29, x
- Cc1cc(C)n(C2=NCCN2S(=O)(=O)c2cc(C(F)(F)F)cc(C(F)(F)F)c2)n1
  x, -0.98
- COc1cc(Cn2c(=O)sc3ccccc32)ccc1OC(C)C
  0.68, -0.49
- CN(C(=O)c1noc2c1COc1ccccc1-2)c1ccccc1F
  0.84, -1.73
- Cc1ccc(C)c(-c2nc(Cn3c(=O)cc(-c4ccccc4)c4c(C)nn(C)c43)c(C)o2)c1
  0.69, x
- CN(CCCC(=O)O)S(=O)(=O)c1ccc2c(c1)C(=O)c1cc(S(=O)(=O)N(C)CCCC(=O)O)ccc1-2
  x, -0.81
- CCc1nn(CC(=O)NCCCSC2CCCCC2)c(=O)c2cc3occc3n12
  -0.42, -0.72
- COc1nsnc1N1CCOCC1
  -1.38, -0.76
- Cc1cccc(C2CC(=O)Nc3c2c(C)nn3-c2ccc3nnc(C)n3n2)c1 (stereo unspecified)
  0.52, x
- CCOC(=O)N1CCC(NC(=O)c2cc(Cl)sc2Cl)CC1
  x, -0.57
- CCOc1ccc(N2C(=O)N(CC)C3CS(=O)(=O)CC32)cc1 (stereo unspecified)
  -0.59, x
- CC1CCc2c(sc3ncnc(N4CCN(C)CC4)c23)C1 (stereo unspecified)
  -0.24, 0.8
- CNCC(=O)c1c[nH]c2ccccc12
  -1.21, -0.96
- COc1ccc(CN2CCN(C3CC4CCC3C4)CC2)c(OC)c1 (stereo unspecified)
  1.63, -0.32
- O=C(NCc1cccc(F)c1)c1c(O)c2cccc3c2n(c1=O)CCC3
  x, -1.77
- Cc1cc2ccccc2n1-c1ccc(C(=O)NC2CCCC2)s1
  0.35, x
- N#Cc1c(-c2cccnc2)cc(-c2ccc(F)cc2)nc1N
  0.76, -2.37
- O=S1(=O)C[C@H](N2CCN(C/C=C/c3ccccc3)CC2)[C@@H](S(=O)(=O)c2ccc(F)cc2)C1
  1.15, -0.27
- CCC(C(=O)NC(C)c1ccc2c(c1)OCCO2)n1nc(C)n2c(cc3occc32)c1=O (stereo unspecified)
  0.45, 0.81
- N#Cc1cc2c(=O)n3ccccc3nc2n(Cc2cccnc2)c1=O
  1.22, 0.17
- CCc1c(C)c(C#N)c2nc3ccccc3n2c1NCCOCCO
  -0.84, -4.48
- OCCNc1ncnc2c1cnn2-c1ccc(F)cc1
  -0.36, x
- O=[N+]([O-])c1ccc2c(c1)NC1(CCCCC1)N2
  x, -0.71

Four entries from above, with each value named.
> O=S1(=O)C[C@H](N2CCN(C/C=C/c3ccccc3)CC2)[C@@H](S(=O)(=O)c2ccc(F)cc2)C1
  HIV TAR-Tat: 1.15 | CDC25B CDK2 inh: -0.27

> OCCNc1ncnc2c1cnn2-c1ccc(F)cc1
  HIV TAR-Tat: -0.36 | CDC25B CDK2 inh: x

> COc1ccc(CN2CCN(C3CC4CCC3C4)CC2)c(OC)c1 (stereo unspecified)
  HIV TAR-Tat: 1.63 | CDC25B CDK2 inh: -0.32

> CC1CCc2c(sc3ncnc(N4CCN(C)CC4)c23)C1 (stereo unspecified)
  HIV TAR-Tat: -0.24 | CDC25B CDK2 inh: 0.8

A draw from above in order of length of the SMILES, ascending:
Values run as follows: HIV TAR-Tat, CDC25B CDK2 inh
- N#Cc1c(-c2cccnc2)cc(-c2ccc(F)cc2)nc1N
  0.76, -2.37
- O=C(NCc1cccc(F)c1)c1c(O)c2cccc3c2n(c1=O)CCC3
  x, -1.77
- Cc1cccc(C2CC(=O)Nc3c2c(C)nn3-c2ccc3nnc(C)n3n2)c1 (stereo unspecified)
  0.52, x
- O=S1(=O)C[C@H](N2CCN(C/C=C/c3ccccc3)CC2)[C@@H](S(=O)(=O)c2ccc(F)cc2)C1
  1.15, -0.27

The list goes on.
Values run as follows: HIV TAR-Tat, CDC25B CDK2 inh
- Cc1c(C(=O)Nc2ccc(F)cc2F)oc2ccc3c(c12)C(=O)CC(C)(C)O3
  1.2, x
- CC1=C(C#N)C(c2ccc(N(C)C)cc2)C2=C(CC(C)(C)CC2=O)N1 (stereo unspecified)
  -0.23, -0.28
- Cc1ccc(-c2noc(-c3nnn(-c4ccccc4Br)c3C)n2)cc1
  0.35, x
- N#C/C(=C\Nc1cnccn1)S(=O)(=O)c1ccc(C(F)(F)F)cn1
  x, 0.41
- COc1ccc(-c2noc(N3CCC(C(=O)O)CC3)n2)cc1OC
  -0.09, x
- Cn1c(=O)c2c(SCC(=O)N3CCCCC3)nc(-c3cccs3)nc2n(C)c1=O
  x, -1.56
- O=C(Cc1csc2nc(-c3ccc(Cl)cc3)cn12)NC1CCCC1
  0.57, x
- CC12CCCC(O)(C1)C1CC(C)(C)C1CC2 (stereo unspecified)
  2.08, x
- O=C(CCc1nnc2ccc(NCc3ccc4c(c3)OCO4)nn12)NC1CCCCC1
  1.2, x
- CCCCC1(CC)C(=O)NC(=O)NC1=Nc1ccc(OC)cc1 (stereo unspecified)
  -0.67, -0.16
- C=CCn1c(=O)[nH]c2nc3cc(NC(=O)CC)c(C)cc3nc2c1=O
  -6.47, -0.48
- c1ccc(-c2nc3c4ccccc4nc(NCCN4CCCC4)n3n2)cc1
  x, -2.57
- CCNC(=O)SCC(N)C(=O)O (stereo unspecified)
  x, -1.25
- CC(C)C(=O)Nc1ccc(OCc2cc(=O)n3cc(Cl)ccc3n2)cc1
  1.36, x
- O=C(O)c1cc(-c2ccccc2)nc2n[nH]c(-c3ccc(F)cc3)c12
  0.9, x

Following part:
Molecule	HIV TAR-Tat	CDC25B CDK2 inh
Cc1cn2c(=O)c(S(=O)(=O)Nc3ccc4c(c3)OCCO4)c(C)nc2s1	0.56	x
Cc1ccc(C2CC(c3ccc(NS(C)(=O)=O)cc3)=NN2C(=O)CCC(=O)O)cc1 (stereo unspecified)	x	-3.8
CC1(C(=O)NC2CCCCC2)Cn2c(cc3sccc32)C(=O)N1CCN1CCOCC1 (stereo unspecified)	2.3	-1.47
CC1Oc2ccc(C(=O)c3cc4ccccc4o3)cc2N(C)C1=O (stereo unspecified)	-0.11	0
CCC(C)N1C(=O)C2C(C(=O)Nc3ccc(C(C)C)cc3)C3C=CC2(O3)C1C(=O)NC1CCCCC1 (stereo unspecified)	0.42	-0.82
Nc1ccc2nc(CCc3nc4ccc(N)cc4[nH]3)[nH]c2c1	x	-0.54
COc1cc2c(cc1NS(=O)(=O)c1cc(Cl)ccc1OC)n(C)c(=O)n2C	1.83	-1.43
Fc1c(CSC(=S)N2CCOCC2)cccc1CSC(=S)N1CCOCC1	x	-0.12
COc1ccc(Cl)cc1NC(=O)CSc1nncn2c1cc1occc12	-13.8	x
COC(=O)c1sc(=S)n(-c2cccc(OC)c2)c1N	0.99	x
CC1CCC2C(C1)c1sc(=O)[nH]c1SC2(C)C (stereo unspecified)	x	0.47
CN(C)CCN(C(=O)CCS(=O)(=O)c1ccccc1)c1nc2c(F)cccc2s1	0.18	x
Cc1c(Cl)cccc1-n1nnc(-c2nc(-c3ccccn3)no2)c1N	1.68	x
CC(=O)Nc1ccc(NC(=O)c2ccccc2C(=O)O)cn1	x	0.72
CCS(=O)(=O)N1CCN(c2cc(N3CCCCC3)nc(C)n2)CC1	-0.22	-0.79
Cn1ncc2c(NC3CCCC3)ncnc21	0.25	x
CC(C)(C)OC(=O)C1C(=O)CC(C)(O)C(C(=O)OC(C)(C)C)C1c1ccccc1 (stereo unspecified)	-0.29	-2.27
CC(C)NC(=O)NNC(=O)Cn1nnc(-c2cccc(Cl)c2Cl)n1	x	-1.51
CCc1cc2c3c([nH]c2cc1S(=O)(=O)NCCN1CCc2ccccc2C1)CC(C)(C)CC3=O	0.55	x
COc1ccc(O)c(C2Nc3ccccc3-n3c(-c4ccccc4)c4c(=O)n(C)c(=O)n(C)c4c32)c1 (stereo unspecified)	1.73	-0.2
CC(C)CNC(=O)C1=CC(c2cccs2)=NS(=O)(=O)N1C	0.93	-0.61
Brc1ccccc1OCCCCCN1CCOCC1	0.02	-0.24
CSc1nc(=O)[nH]nc1C	x	-0.92
Cn1ccnc1SCC(=O)c1ccc(Br)cc1	-0.26	-6.4
OC[C@H]1O[C@H](O[C@H]2O[C@H](CO)[C@@H](O)[C@H](O)[C@H]2O)[C@H](O)[C@@H](O)[C@@H]1O	1.16	x
O=C(NCCc1cccs1)c1cnc2sc(N3CCCC3)nn2c1=O	1.17	x
COC(=O)C1=NOC2(CC(=O)N(c3ccc(Cl)cc3)C2=O)C1 (stereo unspecified)	-3.6	-2.02
COc1ccc(OC)c(NC(=O)N2CCC(CN3CCOCC3)CC2)c1	2.04	x
CC(=O)N1C=CC(c2c[nH]c3ccccc23)C=C1	x	-1.19
Cc1c(C(=O)N2CC(C)CC(C)C2)sc2ncnc(N3CCN(c4ccccn4)CC3)c12 (stereo unspecified)	x	-0.92
CCOC(=O)N1CCN(C(=O)c2sc3ncnc(N4CCC(C)CC4)c3c2C)CC1	1.82	x
CC(=O)Oc1ccccc1C(=O)OC1=CN(C(C)C)S(=O)(=O)c2ccccc21	-0.33	-0.16
O=C(CCBr)N1CCN(C(=O)CCBr)CC1	-0.3	x
CC(C)N(Cc1cccs1)S(=O)(=O)c1ccc2c(c1)NC(=O)CCS2	-0.87	x
CCOc1ccccc1NS(=O)(=O)c1ccc2c(c1)S(=O)(=O)N=CN2	-0.09	x
N#Cc1c(-c2ccccc2)nc(SCCCCOc2ccc(Cl)cc2)[nH]c1=O	-3.75	4.75*
CC(=O)N1N=C(c2ccco2)CC1c1cn(-c2ccccc2)nc1-c1cccs1 (stereo unspecified)	-2.99	-3.45
CNC(=O)CCCN1C(=O)c2ccccc2Sc2ncccc21	-3.03	x
Cn1c(=O)oc2cc(S(=O)(=O)NCCN3CCN(c4ccccc4F)CC3)ccc21	x	-1.48
CCOC(=O)c1cnc(SC(CC)C(=O)NC2CCCC2)nc1N (stereo unspecified)	1.97	x
Brc1ccc2oc(-c3ccn[nH]3)cc2c1	x	-4.03
O=C(N/N=C/c1cccs1)c1ccc2nonc2c1	x	-0.33
N#C/C(N=Cc1ccc(C#Cc2ccccc2)cc1)=C(\C#N)N=Cc1ccc(C#Cc2ccccc2)cc1	x	-1.76
O=C(C1CCN(c2ccc(-c3cccs3)nn2)CC1)N1CCN(c2cccc(Cl)c2)CC1	0.51	x
NC(=O)c1nc(-c2cccs2)nc2c1[nH]c(=O)n2-c1ccc(F)cc1	-3.99	x
O=C(NCc1cccnc1)c1ccc(Cn2c(=O)c3cccn3c3cccnc32)cc1	-1.07	x
c1ccc2c(c1)OCC(c1nnc3sc(-c4ccc5c(c4)OCO5)nn13)O2 (stereo unspecified)	-0.3	-2.69
O=C(Cc1cccc2ccccc12)Nc1noc(-c2ccc(Cl)cc2)n1	0.24	-1.21
CCOC(=O)Cc1cc(=O)n2[nH]c(C(C)(C)C)cc2n1	x	-1.08
O=C(c1noc2c1CCc1sccc1-2)N1CCN(c2cccc(Cl)c2)CC1	1.34	x
Cc1ccc(Nc2c(-c3ccco3)nc3cccc(C)n23)cc1	x	-0.05
COc1ccccc1C1CCN(C(=O)CSCc2cccc3ccccc23)CC1	x	-0.89
CCCN(CCC)S(=O)(=O)c1ccc(C(=O)N/N=C/c2ccc(NC(C)=O)cc2)cc1	x	-0.99
Cc1ccc(-n2nnc(-c3nc(-c4ccncc4)no3)c2N)c(C)c1	-1.87	x
CCN(CC)c1ccc2nnc(CCC(=O)NCc3ccco3)n2n1	1.15	x
Cc1cc(NC(=O)NCc2ccc3c(c2)OCO3)c(C(F)(F)F)o1	x	-0.13

The list continues.
Molecule	HIV TAR-Tat	CDC25B CDK2 inh
CN(C)c1ccc(C2Nc3ccccc3NC3=C2C(=O)CC(c2ccc(Cl)cc2)C3)cc1 (stereo unspecified)	0.79	-1.28
O=C(C1CCCN(S(=O)(=O)N2CCOCC2)C1)N1CCN(c2ccccc2F)CC1 (stereo unspecified)	2.86	x
CC1=C(c2ccc(C)c(C)c2)S(=O)(=O)N=C1N1CCC(C(=O)N2CCN(C)CC2)CC1	0.28	x
Cc1ccc(C(=O)CSc2nnc(-c3ccccc3)n2C)cc1	0.74	1.29
CCOc1ccc(-c2nc3ncccn3c2NCc2ccc(C)cc2)cc1OCC	-0.37	x
O=C(CCS(=O)(=O)CCSc1ccc(Cl)cc1)NCNC(=O)CCS(=O)(=O)CCSc1ccc(Cl)cc1	x	-3.04
CCC(C(=O)N1CCN(c2ccccc2)CC1)n1nc(C)n2c(cc3sccc32)c1=O (stereo unspecified)	1.65	-1.16
COc1cccc2c1OC(CCSC)N1N=C(c3cc(Cl)ccc3O)CC21 (stereo unspecified)	2.39	-1.93
CSc1nc2c(c(=O)n1C)C1(CCCCC1)Cc1ccccc1-2	1.68	-1.52
CCOC(=O)c1c(NC(C)=O)sc2c1CCCCC2	-1.11	-2.04
CC(C)(C)NC(=O)Cn1nnc(-c2ccc3c(c2)OCO3)n1	-1.38	-3.51
O=C(c1ccccc1Cl)N1CCN(c2ccccc2)CC1	x	-0.96
CC1CN2C(=O)Cc3c(S(=O)(=O)Nc4ccc(Cl)cc4)ccc(c32)S1 (stereo unspecified)	-0.83	x
COC(=O)C1(C(F)(F)F)N=C(c2ccccc2)OC(N2CCOCC2)=N1 (stereo unspecified)	x	-0.72
CCOC(=O)c1ccc(N/N=C/c2cc(OC)c(OC)c(OC)c2)cc1	x	0.07
